From PubChem
Ba CapD inh = Bacillus anthracis CapD inhibitors, primary screen, biochemical, fluorescence intensity | actives 0.23% (n = 140,000) | AID 492967, 2010 | z-score (no concentration beside the values) | purified CapD enzyme, fluorescence intensity read-out; hits give low values; some hits fall short of the stated cut;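 active = z-score under -4 in either of two replicates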;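 note: stock transfer was 100 nL into about 40 µL; score is relative to mean and spread of the plate; one replicate is shown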
AID504770 = growth inhibition of E. coli YBA685, primary screen, V. cholerae RctB inhibitors; AID 504770, 2011; E. coli YBA685 rctB-dependent plasmid, OD600 growth, 3 h; hits give low values; actives 0.27% (n = 130,000); z-score (test concentration not listed);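 active = z-score under -2 on both plates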;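 note: wells of about 30 µL received 100 nL stock; score is relative to mean and SD of the test wells; the first replicate is given; strong numbers were not always called active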
An asterisk follows results filed as active; i = inactive; / = no result given; & = joins results of further samples.

SMILES	Ba CapD inh	AID504770
O=C1C(=O)N(CCN2CCNCC2)C(c2ccccc2)/C1=C(\O)c1ccccc1 (stereo unspecified)	-0.065	/
Cc1onc(-c2c(Cl)cccc2Cl)c1C(=O)NC1CSC(C)SC1 (stereo unspecified)	-0.69	-0.75
O=C(NCc1nc2ccccc2n1Cc1ccccc1)c1cccs1	0.425	-0.5
Cc1cc(C)c(C(=O)O)c(CC(C)(C)C(=O)O)c1	0.59	/
O=C(CCS(=O)(=O)c1cccc2nonc12)Nc1cccc(Cl)c1	-0.85	-0.95
O=C(Nc1ccc(Oc2ccccc2)cc1)c1ccc(Cn2c(=O)[nH]c3ccsc3c2=O)cc1	14.9	1.65
CC(C)CNCC1COc2ccccc2O1 (stereo unspecified)	0.375	-0.4
CC(=O)c1ccccc1NC(=O)/C(=C/c1ccc2c(c1)OCO2)NC(=O)c1ccccc1Br	25.8	/
CSC(N)=Nc1ccc(F)cc1	0.205	0.45
NC(=O)c1ccccc1NC(=O)CCCOc1ccc(Cl)cc1Cl	2.02	-0.55
CN(C)c1ccc(CC(=O)c2nc3ccccc3s2)cc1	-0.215	-0.8
COc1ccc(-c2nnc(NC(=O)Cc3ccccc3)o2)cc1	/	0.2
CN(CCOC(=O)c1ccccc1)c1cc(C(F)(F)F)nc2ccccc12	0.745	0.35
CCC(=O)O[C@H]1CCC2C3CCc4cc(O)ccc4C3CC[C@@]21C (stereo partly specified)	/	0.35
O=C(O)CCC12CC3CC(CC(O)(C3)C1)C2	0.115	1.35
Nc1nonc1C(=O)OCC(=O)c1ccccc1	0.49	-0.25
CC(C)(C)c1nnc2sc(-c3cccs3)nn12	-0.35	1.2
O=C(Nc1cccc(Cl)c1)c1cc2cc3ccc(Cl)cc3nc2o1	-0.03	-0.05
O=C(CCc1nc2ccccc2c(=O)[nH]1)Nc1cccc(N2CCCC2=O)c1	/	1.05
CCOC(=O)c1c(NC(=O)c2ccc(Cl)cc2)sc(C(=O)Nc2cccc(Cl)c2C)c1C	0.99	/
CCCCNC(=O)c1ccc(S(=O)(=O)N(C)C)cc1	/	-2
O=C(CNS(=O)(=O)c1ccccc1)Oc1ccc2ccc(=O)oc2c1	2.04	-0.7
COc1ccc(C2CC(=O)N(CC(=O)Nc3c(C)cc(C)cc3C)c3ccccc3S2)cc1OC (stereo unspecified)	1.17	-0.85
O=[N+]([O-])c1ccc(CNCc2ccc([N+](=O)[O-])cc2)cc1	-0.505	/
NNC(=O)C1C(C(=O)NN)C1c1ccccc1 (stereo unspecified)	-0.715	-0.65

SMILES	Ba CapD inh	AID504770
NNC(=O)c1cc(-c2ccccc2)n[nH]1	-0.725&0.195	-1.2&-0.05
O=C(Cc1ccccc1)N/N=C/c1ccco1	0.15	0.2
CC1(NC(=O)c2ccc(C#N)cc2)CCS(=O)(=O)C1 (stereo unspecified)	/	1.5
CC(=O)Nc1cc(C)ccc1C	/	-0.9
O=C(CN1CCN(C(=O)c2ccco2)CC1)Nc1ccccc1C(F)(F)F	0.51	0.35
COC(=O)c1ccc(CN(C)C)o1	0.1	-0.15
CCCCCn1c(SCC(=O)N2CCC(C(F)(F)F)CC2)n[nH]c1=O	-0.985	1.95
Nc1ccc(OCc2ccccc2Cl)cc1	-0.575	0.2
CC(C)CC(C(=O)Nc1ccc(S(N)(=O)=O)cc1)N1C(=O)C2C3C=CC(C3)C2C1=O (stereo unspecified)	0.12	-0.8
CC(C)(C)NC(=O)c1ccc(COCC(F)(F)F)o1	-0.78	0.4
O=C(Nc1cc(C(=O)N2CCC(Cc3ccccc3)CC2)ccc1N1CC2CC(C1)c1cccc(=O)n1C2)c1ccncc1 (stereo unspecified)	-0.205	/
N#Cc1c(Cl)cccc1N1CCC(C#N)CC1	21.8	/
COc1cccc(C2C3=C(CC(C)(C)CC3=O)OC3=C2C(=O)CC(C)(C)C3)c1OCC(=O)O	-0.04	/
Nc1cc2c3c(c1)C(c1ccccc1)CCN3CCC2c1ccccc1 (stereo unspecified)	-0.305	/
Cn1c(SCc2nc3ccccc3o2)nnc1C(F)(F)F	/	0.45
O=C(O)c1ccc(NC(=O)C23CC4CC(CC(C4)C2)C3)cc1	-1.11	0.15
CCc1cccc(NC(=O)NC2CC(=O)N(C3CCCC3)C2)c1 (stereo unspecified)	0.07	-0.5
CC1(C)Cc2cccc(C(=O)NC3CCN(Cc4ccccc4)CC3)c2O1	0.825	2.35
COc1ccc(NC(=O)c2cnc(SCC(=O)Nc3cc(C)on3)n(C)c2=O)cc1	/	1
COc1ccc(C(=O)Cc2ccccc2OC(=O)c2ccccc2)cc1	0.21	0
c1cnc(N2CCNCC2)nc1	1.23	/
CCCC1C(C#N)=C(N)OC2=C1C(=O)CCC2 (stereo unspecified)	0.81	-0.3
CCc1nc2cc3sc(CC)nc3cc2s1	-0.295	0.1
COc1ccccc1-n1c(SCc2csc(NC(C)=O)n2)nnc1-c1cccs1	/	0.3
O=C(CN(Cc1ccco1)C(=O)Cn1nnc(-c2cccs2)n1)NCc1ccccc1	/	0.3

SMILES	Ba CapD inh	AID504770
COCCN1C(=O)/C(=C/c2c(NCCN3CCOCC3)nc3c(C)cccn3c2=O)SC1=S	-0.23	/
O=C(CCN1C(=O)/C(=C\c2ccco2)SC1=S)NC1CCCC1	/	0.9
COc1ccc(-c2ccc(/C=C(\C#N)c3ccccc3)o2)cc1	i	1.9
Cc1cc([N+](=O)[O-])ccc1-n1c(C)cc(C=C2C(=O)N(C)C(=S)N(C)C2=O)c1C	-0.265	/
Cc1ccc(OC(=O)c2ccccc2)c(-n2nc3ccccc3n2)c1	0.045	0.5
O=S1(=O)CC(Sc2cccs2)c2ccccc21 (stereo unspecified)	2.18	/
O=C(NCc1cccs1)C1Cc2ccccc21 (stereo unspecified)	-0.37	/
CCOC(=O)C1CCN(c2nc(Cc3ccccc3)nc3sc(C)c(C)c23)CC1	-0.36	/
O=C(NCc1cccnc1)c1cn(C2CC2)c2cc(N3CCN(C(=O)c4cccc(Cl)c4)CC3)c(F)cc2c1=O	/	-1.6
O=C1c2ccccc2C(=O)N1Cc1ccccn1	0.235	-0.45
CCNc1nc2c(C)cccc2s1	0.21	-1.05
CC(C)(O)C#Cc1ccc(COC(=O)NNC(=O)c2cccnc2)cc1	-0.71	/
COC(=O)c1c(C)[nH]c(C(=O)C(C)n2nnc(-c3ccc(C)cc3)n2)c1C (stereo unspecified)	/	-0.2
N#Cc1ccc(OCC(=O)Nc2cc(-c3ccccc3)nn2-c2ccccc2)cc1	/	-0.05
O=C1COc2ccc(C(=O)COC(=O)[C@@H]3CCCN3S(=O)(=O)c3ccc(Cl)cc3)cc2N1	/	0.6
CCOC(=O)C(NC(=O)c1cc2ccccc2s1)C(=O)OCC	0.21	/
CSc1sc(C(=O)O)c(C)c1C(C)=O	0.095	/
COc1cc(C2Nc3ccc4ccccc4c3C3=C2C(=O)CC(C)(C)C3)ccc1OCc1ccccc1 (stereo unspecified)	96	/
COc1ccc(C2C(C(=O)NCCc3ccc(OC)c(OC)c3)c3ccccc3C(=O)N2C)cc1 (stereo unspecified)	-0.125	/
CC(C)(c1ccccc1)c1cc(CN2CCOCC2)c(O)c(CN2CCOCC2)c1	12.3	-0.2
COc1ccc(Cc2nc3cc(C)c(C)cc3n(C)c2=O)cc1Br	2.5	/
Cc1scc(CSCC(=O)O)c1C	0.175	-0.55
Cc1ccc(NC(=O)CN(C)C(=O)Cn2ncc(Cl)c(Cl)c2=O)cc1	/	1.45
N#Cc1ccc(-n2cccc2)c(CS(=O)(=O)c2ccc(Cl)cc2)c1	0.555	/
Cc1cc(Br)c(N2C(=O)CCC2=O)c(Br)c1	-0.905	-1

SMILES	Ba CapD inh	AID504770
O=C(NCc1ccc(Cl)cc1)c1cc2ccccc2oc1=O	28.5	0.7
CCc1ccc(NC(=O)CC(NCc2ccccc2)C(=O)O)cc1 (stereo unspecified)	-0.195	-0.4
CCCOc1ccc(-c2cnc(=S)[nH]c2N)cc1	-0.56	-0.55
O=C(O)c1ccc(N/C=C/C(=O)c2ccccc2)cc1	-4.47	-0.7
CCOc1cc(/C=c2/sc3nc(-c4ccc(Cl)cc4)nn3c2=O)ccc1OC(C)=O	0.455	/
ONC(=Nc1cccc(C(F)(F)F)c1)c1ccccc1	-0.265	-0.65
COC(=O)c1ccccc1NC(=O)c1c(C)nc2ccccn12	8.9	1.25
CCOc1cc([N+](=O)[O-])cc(/C=C2/SC(=Nc3ccccc3)NC2=O)c1O	-2.67	/
CCCCN1CCC(N)=NC1=O	/	1.45
COc1ccc(Nc2nc(-c3ccccc3)cs2)cc1	-0.41	0.7
O=C(O)c1cnc(-c2ccc(Cl)cc2)nc1	/	-0.45
CC(C)n1nc(C(=O)OCc2nc(N)nc(Nc3ccccc3)n2)c2ccccc2c1=O	/	0.55
Cc1nc(-c2ccc(-c3cccs3)s2)sc1-c1ccnn1C(=O)c1cccs1	0.965	-0.8
COc1ccc(Cl)cc1NC(=O)c1sc2ncn(CC(=O)Nc3cccc(C(F)(F)F)c3)c(=O)c2c1C	-0.865	/
C=CCOc1ccc2c(C)c(CCCC)c(=O)oc2c1	37.9	-0.2
Cc1cc(=S)n2c([nH]c3ccccc32)c1C#N	/	-0.55
Cc1ccc(CNC(=O)/C=C/c2ccc(OCc3cccc(Cl)c3)cc2)cc1	-0.03	/
Cc1cc(NC(=O)c2nn3c(c2Cl)NC(c2ccc(Br)cc2)CC3C(F)(F)F)no1 (stereo unspecified)	0.31	/
O=S(=O)(NCCOc1nnnn1-c1ccccc1)c1ccc(-n2cnnn2)cc1	0.05	-1.6
C=CCn1c(SCC#N)nnc1-c1ccc2ncccc2c1	0.16	1.4
Cn1cc(Br)c(C(=O)O)n1	-0.27	-0.4
CC(C)CCNC(=O)C1=CC=CN2CCS(=O)(=O)N=C12	/	0.35
O=C(CSC1=NCCS1)OCN1C(=O)c2ccccc2C1=O	/	0.5
CCOC(=O)c1c(N)sc2c(OCC)c(Br)ccc12	0.22	0.1
Cc1ccc(NC(=O)CN(C)C(=O)Cn2c(=O)cnc3ccccc32)cc1	/	-0.5

Sorted by count of non-hydrogen atoms (ascending): 3 of the compounds above.
SMILES	Ba CapD inh	AID504770
Cn1cc(Br)c(C(=O)O)n1	-0.27	-0.4
O=S(=O)(NCCOc1nnnn1-c1ccccc1)c1ccc(-n2cnnn2)cc1	0.05	-1.6
Cc1cc(NC(=O)c2nn3c(c2Cl)NC(c2ccc(Br)cc2)CC3C(F)(F)F)no1 (stereo unspecified)	0.31	/

Next structures.
SMILES	Ba CapD inh	AID504770
Nc1csc2nc(=O)cnn12	/	-0.55
CN(CC1COc2ccccc2O1)c1nc(CN2CCOCC2)nc2sc3c(c12)CCCC3 (stereo unspecified)	/	-0.85
CCCSc1nnc(CSc2ncccn2)n1-c1ccc(F)cc1	/	-0.05
O=C(O)CCCn1ccnc1	/	1.85
CCc1ccc(C(=O)CSc2nnc(-c3ccncc3)n2C2CC2)s1	/	0.35
CCOc1cccc2c1OC(c1cccc(OC)c1OC)N1N=C(c3cccnc3)CC21 (stereo unspecified)	0.24	/
O=C(CNC1CC1)NCc1cccs1	/	1.5
CCc1ccccc1N(C)C(=O)CCn1c(=S)oc2ccccc21	-0.06	-0.85
CCCN(C(=O)c1ccc(C(F)(F)F)cc1)C1CCN(C)CC1	-0.2	/
CCn1c(=O)n(CC(=O)N2CCC(C(N)=O)(N3CCCCC3)CC2)c(=O)c2ccccc21	2.21	/
CC1CCN(c2nc(Cl)nc(Nc3ccc4c(c3)OCO4)n2)CC1	0.68	/
COCCn1c(SCC(=O)NCc2ccccc2)nc2ccccc21	/	0.05
CC(C)NC(=S)NC(=O)c1cccs1	-0.615	1.1
COc1ccc(C(N)c2ccccc2)cc1 (stereo unspecified)	0.295	-1.25
O=C(CSc1ccccc1)N1CCN(S(=O)(=O)c2cccs2)CC1	-0.41	1.2
Cc1ccccc1NC(=O)c1ccc(F)c(S(=O)(=O)NC2CCCCCC2)c1	-0.14	/
Cc1cc(=O)[nH]c(SCC(=O)NCC2CCCCC2)c1C#N	/	0.05
CCCN1CCN(C(=O)Nc2ccc(C(=O)OCC)cc2)CC1	0.32	0.45
CCOc1nc2cccnc2n(CC(=O)Nc2ccccc2C(F)(F)F)c1=O	9.8	-0.25
O=C(CCC1CCCC1)Nc1ccc(-c2nnc3n2CCCCC3)cc1	0.23	-0.4
COc1ccc(C2=NN3C(C2)c2cc(Cl)ccc2OC3c2ccc(F)cc2)cc1OC (stereo unspecified)	0.265	/

As a short view, part of the list above:
SMILES	Ba CapD inh	AID504770
O=C1C(=O)N(CCN2CCNCC2)C(c2ccccc2)/C1=C(\O)c1ccccc1 (stereo unspecified)	-0.065	/
Cc1onc(-c2c(Cl)cccc2Cl)c1C(=O)NC1CSC(C)SC1 (stereo unspecified)	-0.69	-0.75
O=C(NCc1nc2ccccc2n1Cc1ccccc1)c1cccs1	0.425	-0.5
